# Screening results deposited in PubChem by several laboratories.
# PABP polyA inh: PABP-poly(A) binding inhibition; PABP-poly(A) RNA binding, fluorescence polarization; inhibition, % at 35 µM; P11940; actives 1% (n = 290,000);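 active = 50% or more with normal probe brightness, or confirmed in later tests; about a fifth of its hits are not listed in these tables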;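 note: calls also rest on retests at 20 µM and on dose response follow-up; controls were probe without protein and protein plus probe with vehicle; some compounds called inactive have numbers as strong as hits; many hits fall short of the cut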
# Target sequence (P11940 whole entry, looked up): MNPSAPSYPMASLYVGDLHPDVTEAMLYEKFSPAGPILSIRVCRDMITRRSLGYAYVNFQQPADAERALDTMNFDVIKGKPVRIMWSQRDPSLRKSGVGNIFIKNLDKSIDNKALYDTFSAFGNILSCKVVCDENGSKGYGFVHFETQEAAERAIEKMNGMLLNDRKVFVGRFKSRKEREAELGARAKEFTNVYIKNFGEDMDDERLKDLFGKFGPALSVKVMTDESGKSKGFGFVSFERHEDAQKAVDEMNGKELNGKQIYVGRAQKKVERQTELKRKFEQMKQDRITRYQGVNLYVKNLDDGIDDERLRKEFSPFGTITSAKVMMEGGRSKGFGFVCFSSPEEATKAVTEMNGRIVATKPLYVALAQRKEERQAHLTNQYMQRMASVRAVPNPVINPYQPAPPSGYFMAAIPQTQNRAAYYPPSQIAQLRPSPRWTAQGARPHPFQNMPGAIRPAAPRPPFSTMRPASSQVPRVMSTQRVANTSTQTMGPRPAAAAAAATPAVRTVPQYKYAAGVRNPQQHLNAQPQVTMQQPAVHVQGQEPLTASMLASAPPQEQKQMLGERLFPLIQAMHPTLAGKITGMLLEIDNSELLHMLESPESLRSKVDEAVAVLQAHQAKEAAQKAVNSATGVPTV
# Env fusion inh: inhibitors of HIV Env-mediated cell fusion; AID 651610; actives 1.1% (n = 360,000); inhibition, % at 12.3 µM; HeLa-JRFL Env/CEM21 cell fusion, luciferase;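 active = mean replicate inhibition score of at least 50 and every replicate individually at or above 50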;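 note: 0% = plate neutral controls and 100% = maraviroc near 300 nM; one replicate is shown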
# UUG fidelity: alters start codon recognition fidelity in yeast; S. cerevisiae UUG-firefly luciferase reporter, luminescence/redox ratio; activity score, % at 18.7 µM; actives 0.13% (n = 350,000);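 active = replicate mean at a twofold rise or more, about +100% in these data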;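 note: firefly luciferase made from a UUG start codon reports start codon fidelity; reporter light over untreated wells divided by growth signal over untreated wells; some hits fall short of that in this replicate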
# eIF4H FP inh: inhibitors of RNA binding by human eIF4H | inhibition, % at 35 µM | actives 0.94% (n = 290,000) | AID 2012 | Q15056 | eIF4H fluorescence polarization binding assay;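 active = 50% or more with normal probe brightness, or confirmed in later tests; about a fifth of its hits are not listed in these tables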;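 note: calls also rest on retests at 20 µM and on dose response follow-up; 0% = protein and probe with vehicle and 100% = probe without protein; strong numbers were not always called active; many hits fall short of the cut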
# Rce1 inhib: blocks yeast Ras-converting enzyme. Q03530. yeast membranes, quenched prenylated peptide cleavage fluorescence. calls only. actives 0.27% (n = 290,000). AID 2563;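 active = fall in fluorescence gain of 50% or more versus controls, with final raw signal at or below 3038400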;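 note: plate controls were neutral control wells for no effect and wells lacking membranes for full effect; tested at 10 µM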
# Target sequence (Q03530 whole entry, looked up): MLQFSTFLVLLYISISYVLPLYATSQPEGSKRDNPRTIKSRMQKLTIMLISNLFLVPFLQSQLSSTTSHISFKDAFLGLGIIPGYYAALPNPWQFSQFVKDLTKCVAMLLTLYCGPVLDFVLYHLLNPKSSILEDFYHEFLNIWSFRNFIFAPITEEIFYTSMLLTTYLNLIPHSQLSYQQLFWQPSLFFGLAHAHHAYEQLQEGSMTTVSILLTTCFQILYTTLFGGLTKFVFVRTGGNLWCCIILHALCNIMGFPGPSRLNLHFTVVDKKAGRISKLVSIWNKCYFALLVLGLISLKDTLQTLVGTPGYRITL
# MT1-MMP act inh: inhibitors of human MT1-MMP activation; P50281; HT1080 RFP-PRO-GFP cells, GFP/RFP ratio fluorescence, overnight; percent of plate control window, DMSO zero; GFP/RFP ratio change, % at 20 µM; actives 0.061% (n = 360,000); AID 651647;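 active = GFP/RFP ratio change of at least 30% with cell ATP level not reduced by more than half and red fluorescence within 50% of control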; note: strong numbers were not always called active
#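 Assay system: HT1080 RFP-PRO-GFP cells | Dosing: 20 µM single dose, 1% DMSO | Incubation: Cells overnight before dosing, compound overnight, 37 °C, 5% CO2 | Evaluation: GFP/RFP fluorescence ratio | Control set: DMSO-only wells and HT1080 RFP-L50D-GFP cell wells as references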
# CSC inhib: blocks cancer stem cells | actives 1.1% (n = 300,000) | inhibition, % at 7.5 µM | cancer stem cell-like cells viability, luminescence;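 active = mean at 75% or more and at least half the replicates too; tested in HMLE shEcad cells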;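 note: 0% = median of negative and 100% = median of positive control wells; the first replicate is given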
# MT1-MMP act inh RFP: second read-out of MT1-MMP act inh, no call of its own (marks repeat the call); RFP signal change, %; measured here: RFP expression control read;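 0 = vehicle wells; hits needed this value within 50% of zero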
# * hit, by the source's call; i = inactive; . = no result given. A portion of the library; rates above refer to the full screens.
# Second line of a record – eIF4H FP inh, MT1-MMP act inh RFP, PABP polyA inh, Rce1 inhib, CSC inhib, Env fusion inh, MT1-MMP act inh, UUG fidelity
COC(=O)CSc1ccc(S(=O)(=O)N2CCC(C)CC2)cc1[N+](=O)[O-]
 : 0.6, 8.8, 4.4, i, -14.8, ., 5.3, .
COC(=O)c1[nH]c2ccc(F)cc2c1NC(=O)CCN1CCN(C(=O)c2ccco2)CC1
 : 1.3, ., -6.8, i, ., ., ., .
CCCCCCN(C(=O)CCCCCN1C(=O)NC(c2ccc([N+](=O)[O-])cc2)C(C(=O)OCc2ccccc2)=C1C)C(C(=O)NCCCC)c1ccc(OCC(=O)OC)c(C(=O)OC)c1 (stereo unspecified)
 : -5.1, ., -11.2, i, 53.8, 7.6, ., .
CC(C)(C)c1ccc(C(=O)Nc2ncn[nH]2)cc1
 : -4.2, 4.2, -4.3, i, 13.9, -28.2, 0.3, .
O=C(NNC(=S)NC1CCCCC1)c1cccc(S(=O)(=O)Nc2ccccc2Cl)c1
 : 16.4, -15.7, 10.5, i, 3.5, 10.2, -3.1, -28.9
C/C(CC(=O)Nc1ccc(C)c(Cl)c1)=N\NC(=O)c1ccco1
 : 7.0, 4.2, -7.7, i, -4.4, -10.0, 1.5, .
CC(=O)Nc1cc(-c2cccc(C(=O)N(C)C)c2)cn2c(-c3ccc(F)cc3)cnc12
 : ., -2.3, ., ., ., 8.6, -1.2, -1.2
O=[N+]([O-])c1cccc(-c2ccc(/C=N/NC(=S)Nc3cccc(F)c3)o2)c1
 : 3.2, -13.0, -10.6, i, 2.1, 13.2, 10.3, .
C=CCn1c(N)cc(=O)nc1SCC(=O)N1CCN(c2ccc(F)cc2)CC1
 : -4.8, 2.5, -3.0, i, -7.8, ., 2.1, -10.6
CC(C)CC(c1nnnn1CC1CCCO1)N1CCN(Cc2ccc3c(c2)OCO3)CC1 (stereo unspecified)
 : 1.6, 1.1, 16.7, i, 28.2, ., -1.3, -7.5
N=c1c(C(=O)NC2CCCC2)cc2c(=O)n3ccccc3nc2n1C1CCCCC1
 : -2.2, -1.4, -4.2, i, ., -29.2, 3.4, -3.4
CCOC(=O)CN(C)C(=O)CCc1nnc(-c2ccc(-c3ccccc3)cc2)o1
 : -6.4, -6.5, 2.2, i, -5.3, -1.1, -1.8, 5.7
O=C(COC(=O)CCc1ccc(S(=O)(=O)N2CCOCC2)cc1)NC1CCCCCC1
 : -4.0, 4.1, 6.5, i, -1.3, ., -3.0, .
CN(C)CCOCCOc1ccccc1-c1ccccc1
 : 15.3, -1.5, 20.9, i, 3.8, 7.7, -0.7, 6.4
CC(OC(=O)c1cccc(-n2cnnn2)c1)C(=O)NCc1ccccc1 (stereo unspecified)
 : ., 4.0, ., i, -12.3, ., 2.6, -1.3
COc1cc(/C=N/NC(=O)c2ccncc2)ccc1OC(C)=O
 : 2.9, 0.4, 5.6, i, -15.5, 7.9, 1.2, -8.0
CN=C1SC(CC(=O)Nc2sc3c(c2C#N)CCCC3)C(=O)N1C (stereo unspecified)
 : -0.1, 1.1, 14.4, i, -7.0, ., -1.6, -0.4
CC1=C(C(=O)OCCCBr)C(c2ccc3c(c2)OCO3)NC(=O)N1 (stereo unspecified)
 : -5.9, -0.8, -9.4, i, -10.7, ., 3.8, -1.6
CC(C)n1nc(C(=O)NNC(=O)c2ccc(OC(F)F)cc2)c2ccccc2c1=O
 : ., 1.9, ., ., -2.1, ., -2.6, 20.2
COc1ccc(NC(=O)CN(C)C(=O)c2cc(-c3ccncc3)nc3ccccc23)cc1
 : 14.7, -2.4, 49.5, i, 1.5, 0.4, 1.4, -16.1
CCN1C(=O)C(Cc2nc3ccccc3c(=O)n2C)c2ccccc21 (stereo unspecified)
 : 9.4, 3.2, -1.8, i, -2.0, ., -0.9, -6.2
Cc1ccc(S(=O)(=O)NCC[C@@]2(C)C3CCC2(C)C(=O)C3)cc1 (stereo partly specified)
 : 0.0, -0.3, 12.0, i, -15.5, 16.1, 2.1, .
Cc1n[nH]c(=O)c2c(NC(=O)CSc3ccc(Br)cc3)oc(C)c12
 : ., -0.9, ., i, -10.1, -6.9, -3.0, .
Cc1ccc2cc(-c3noc(C4CCCO4)n3)c(=O)[nH]c2c1 (stereo unspecified)
 : -8.6, 1.3, -2.8, i, -1.4, 2.3, 1.6, -15.5
CN(CCc1ccccc1)C(=O)c1cccc(NC(=O)Cc2cccc([N+](=O)[O-])c2)c1
 : ., -12.6, ., ., -14.3, 7.3, 4.5, 6.7
CCCCN1C(=O)C(=O)N(CC(=O)N2CCc3ccccc32)C1=O
 : ., 1.6, ., ., -8.7, -10.4, -1.3, -7.4
COCCNC(=O)/C(C#N)=C1\N=C(N)c2ccccc21
 : -4.7, -0.3, -0.8, i, -3.6, -228.1, -2.3, .
O=C(NNC(=O)C1CC1c1ccccc1)Nc1ccccc1 (stereo unspecified)
 : -4.7, -1.4, -3.9, i, -6.1, ., -1.0, .
Cc1ccc(S(=O)(=O)c2cc3c(=O)n4ccccc4nc3n(C)c2=N)cc1C
 : ., -1.2, ., i, -10.6, -11.8, 4.8, -4.4
COc1cccc(C(=O)Oc2cc(C)[nH]c(=O)c2[N+](=O)[O-])c1
 : -3.8, 9.6, 5.8, i, 0.6, -8.0, 2.3, .

# Not a retest: an excerpt of the list.
# Second line of a record – eIF4H FP inh, MT1-MMP act inh RFP, PABP polyA inh, Rce1 inhib, CSC inhib, Env fusion inh, MT1-MMP act inh, UUG fidelity
COC(=O)CSc1ccc(S(=O)(=O)N2CCC(C)CC2)cc1[N+](=O)[O-]
 : 0.6, 8.8, 4.4, i, -14.8, ., 5.3, .
COC(=O)c1[nH]c2ccc(F)cc2c1NC(=O)CCN1CCN(C(=O)c2ccco2)CC1
 : 1.3, ., -6.8, i, ., ., ., .

# More structures:
# Second line of a record – eIF4H FP inh, MT1-MMP act inh RFP, PABP polyA inh, Rce1 inhib, CSC inhib, Env fusion inh, MT1-MMP act inh, UUG fidelity
CNC(=O)c1[nH]cnc1C(=O)Nc1cccc(Cl)c1
 : ., 3.0, ., ., 14.0, ., 4.2, 1.6
COCC1CCCN(Cc2cn(-c3ccccc3)nc2-c2ccc3c(c2)OCO3)C1 (stereo unspecified)
 : -4.9, -0.1, -0.9, i, ., 7.3, 8.8, 1.1
CCSC1=C(C#N)C(=O)n2c1cc1c2CCCC1
 : 33.7, 2.6, 33.5, i, 8.3, -6.4, -20.1, -4.6
COc1ccc(CCN2C(=O)CC(C(C)c3ccccc3)C2=O)cc1OC (stereo unspecified)
 : 30.7, 1.1, -1.7, i, -10.4, 14.9, 1.4, .
CC(=O)c1ccc(-c2cc([C@H]3[C@H]4C=CC[C@@H](C)[C@@H]4C(=O)N3Cc3ccccc3)ccc2F)cc1
 : -14.6, -8.1, -3.3, i, 114.6*, 6.5, -8.0, -7.7
Cc1ccc(Cl)cc1N1CCN(S(=O)(=O)c2cccc(S(=O)(=O)N3CCCC3)c2)CC1
 : -3.6, 0.6, 15.6, i, 11.5, ., 4.5, -24.0
Cc1ccc(NC(=O)c2ccc(OC(=O)C(C)Oc3ccc(Cl)cc3C)cc2)cc1 (stereo unspecified)
 : 4.2, 0.4, -6.6, i, -12.7, -1.0, 5.4, -14.7
O=S(=O)(c1ccccc1)n1cc(-c2ccccn2)c(N2CCOCC2)n1
 : 10.6, 7.8, 0.1, i, 1.3, 10.0, 3.4, -6.1
O=c1n(Cc2ccccc2F)c2ccccc2n1Cc1ccccc1F
 : -1.2, -7.8, 27.8, i, ., 40.5, -6.0, -8.4
Cn1c(=O)c2cc(S(=O)(=O)NCCC(=O)NCc3ccccc3Cl)ccc2n(C)c1=O
 : 3.2, 1.6, 7.6, i, 0.3, 6.2, 0.3, 13.0
O=C(/C=C/c1c(Cl)nc2ccccn12)N1CCN(c2ccc(F)cc2)CC1
 : 4.3, -1.8, -7.3, i, 4.0, -5.3, 2.0, -17.5
Cc1ccc(NC(=O)/C(C#N)=C/c2ccccc2C(F)(F)F)cc1
 : 7.0, 2.6, 5.8, i, 10.2, 6.5, -1.2, .
Cc1ccccc1-c1nc(CN2CCC(C(=O)NCCCN3CCCC3)CC2)c(C)o1
 : -3.4, 3.5, 31.3, i, -0.7, -27.9, 2.2, -8.0
CCOc1ccc(CCNS(=O)(=O)c2c(C)n[nH]c2C)cc1OCC
 : -5.7, -2.0, 0.6, i, -8.8, ., 0.3, -3.9
Cc1ccc(-n2nnnc2SCC(=O)NC2CCCc3ccccc32)c(C)c1 (stereo unspecified)
 : -7.8, -13.7, -5.7, i, -2.3, -4.8, -6.8, .
C/C(=N\NC(=O)CN1CCN(Cc2ccccc2)CC1)c1ccncc1
 : -8.1, 0.5, 0.6, i, -11.9, 0.7, 0.7, .
COc1ccc(N/C(N)=N/c2nc(C)c(Cc3ccccc3)c(=O)[nH]2)cc1
 : 3.6, -9.9, 10.8, i, 6.3, -3.5, -0.4, -9.7
COc1ccc(NC(=O)C2CCN(C(=O)Cc3ccccc3)CC2)cc1OC
 : -8.1, 3.8, -1.5, i, -9.4, -13.8, 3.7, .
COCCNC(=S)N1CCN(S(C)(=O)=O)CC1
 : -3.4, 0.2, -7.9, i, 11.1, -14.1, 2.2, .
CCN(CC)CCNC(=O)COc1ccc(Cl)cc1Cl
 : -7.8, 4.4, -9.6, i, -2.0, ., 1.7, -20.7
Fc1ccc(-n2c(Cc3ccccc3)nnc2SCc2nc(-c3cccs3)no2)cc1
 : 0.3, 3.3, -7.4, i, -1.8, ., -3.0, -2.9
C=CCn1c(C(CCCC)CC(C)O)n[nH]c1=S (stereo unspecified)
 : 5.3, 7.2, 4.8, i, -7.3, -25.9, 0.8, .
Cn1/c(=N\NC(=O)c2ccccc2Cl)sc2ccccc21
 : -4.9, 5.7, -4.3, i, -8.1, 14.2, 7.3, -12.7
OC(CNCc1ccccc1)(c1ccc(F)cc1)c1ccc(F)cc1
 : -8.1, -0.6, -4.9, i, -8.1, -150.9, -1.1, -1.7
C#CCOCCOCCOCCNc1nc(N2CCN(C(=O)CCCCCCCCCCNC(=O)Cn3cc(C[C@@H](C)O)nn3)CC2)nc(N2CCN(C(=O)CCCCCCCCCCNC(=O)Cn3cc(C[C@@H](C)O)nn3)CC2)n1
 : ., -7.6, ., ., 62.9, 9.5, 11.3, -12.7
CCN(CC)CCOC(=O)c1ccc(NC(=O)CCCN2C(=O)S/C(=C/c3ccc(OC)cc3)C2=S)cc1
 : -1.4, -3.5, -17.7, i, 22.7, ., -2.0, -65.4
CCOc1ccccc1NC(=O)CSc1nc(N)c(C#N)cc1C#N
 : 11.9, -3.0, -5.5, i, ., ., -5.6, -14.9
Cc1cc(C)c(C)c(S(=O)(=O)Nc2cccc(S(=O)(=O)Nc3ccccc3C(=O)O)c2)c1C
 : ., 4.6, ., ., 14.5, 12.4, -2.0, -6.8
CCC(=O)Nc1ccc(NC(=O)c2ccc3ccccc3c2)cc1
 : -5.7, -0.8, -1.2, i, -2.8, -5.0, -3.7, -18.3
CN1CCN(C2Cc3cc(F)ccc3Sc3ccc(Cl)cc32)CC1 (stereo unspecified)
 : ., -4.9, ., i, -10.6, 23.7, -5.5, -9.7
O=S(=O)(c1ccccc1)N1CCC(O)(CSc2ccc(Cl)cc2)CC1
 : 4.9, -17.3, 2.3, ., 25.4, 61.1*, 1.4, -14.7
O=C1OC[C@H]2CCCN2C(=O)[C@@H](CC(=O)N(CCO)Cc2ccccc2)C/C=C\C[C@H]1Cc1ccc(F)cc1
 : ., -4.8, ., ., -18.9, -15.0, -0.1, -0.4

# Structures above marked active in Env fusion inh:
Structure	MT1-MMP act inh RFP	Rce1 inhib	Env fusion inh	MT1-MMP act inh	UUG fidelity
O=S(=O)(c1ccccc1)N1CCC(O)(CSc2ccc(Cl)cc2)CC1	-17.3	.	61.1*	1.4	-14.7

# Single values from the results shown:
# C=CCn1c(C(CCCC)CC(C)O)n[nH]c1=S (stereo unspecified) | CSC inhib: -7.3
# CNC(=O)c1[nH]cnc1C(=O)Nc1cccc(Cl)c1 | MT1-MMP act inh: 4.2
